# Compound activity as filed in PubChem.
# PrP UTR inh: suppresses PrP 5' UTR mRNA reporter expression. cell-based PrP 5' UTR mRNA reporter, plate reader. inhibition, % (test concentration not listed). actives 0.35% (n = 340,000);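 active = every replicate at 50% or more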;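 also: 0 = median of the neutral control wells; tested in H4 reporter cells; numbers are from one replicate; inactives centre near -14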
# BJeLR viability: kills HRASV12-expressing BJeLR cells | actives 0.17% (n = 300,000) | BJeLR (HRASV12) viability, CellTiter-Glo ATP luminescence, 48 h; reference of the scale not given here | AID 1554 | inhibition, % (test concentration not listed);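 active = replicate mean above 50%; inconclusive = above 50% but judged a plate artefact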;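 also: 50 nL library stock added to about 25 µL; numbers are from one replicate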
# ugtP null kill: growth inhibition of S. aureus ugtP deletion strain; S. aureus RN4220 ugtP deletion, OD600 growth, 16 h; some inactives read as strong as hits; growth inhibition, % (test concentration not listed); actives 0.54% (n = 330,000);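 active = z-score under -3 and OD600 up to 0.15 on both plates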;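 also: plate controls were untreated wells for no effect and antibiotic for full effect; wells of about 80 µL received 100 nL stock; the first replicate is given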
# RN4220 kill: kills Staphylococcus aureus RN4220; S. aureus RN4220 growth, OD600, 16 h; inhibition, % (no concentration beside the values); actives 0.33% (n = 330,000);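 active = z-score of -3 or lower and OD600 up to 0.18 on both plates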;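 also: plate controls were untreated cells for no effect and reference antibiotic for full effect; stock transfer was 100 nL into about 80 µL; one replicate is shown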
# Mtb hypoxia inh: Mtb hypoxia fluorescent reporter inhibition; M. tuberculosis hypoxia-regulated fluorescent reporter, fluorescence; fluorescence inhibition, % (concentration not given with the values); actives 0.1% (n = 300,000); AID 1159583;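 active = 35 to 45% if threefold the growth effect, above 45% if 1.5-fold the growth effect; inactive = the rest, general growth blockers included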;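 also: wells of about 50 µL received 100 nL stock; 0% = vehicle wells and 100% = reference inhibitor wells; whole bacteria with a GFP reporter of the hypoxia response; strong numbers were not always called active; many hits fall short of the cut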
# Bead autofluor: compound fluorescence in toxin protease inhibitor counterscreen. compound autofluorescence counterscreen, microsphere flow cytometry; hits give high values. AID 624483. fluorescence intensity (test concentration not listed). actives 3.1% (n = 360,000);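 active = at least 3 SD above the mean of all compounds, about 16000 in these data; inconclusive = too few beads counted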;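 also: 100 nL of 1 mM stock went into each well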
# Mtb hypoxia inh growth: recorded beside Mtb hypoxia inh, whose call it bears; growth inhibition, %; measured here: M. tuberculosis growth (absorbance);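 0% = vehicle and 100% = reference antibiotic; read after six days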
# * = called active by the depositor; ? = inconclusive; / = not tested or not shown; & = joins results of further samples.
mol,PrP UTR inh,BJeLR viability,ugtP null kill,RN4220 kill,Mtb hypoxia inh,Mtb hypoxia inh growth,Bead autofluor
O=C(Nc1cccnc1Cl)c1ccc(S(=O)(=O)N2CCCCCC2)cc1,-25,-6,7,2.7,5,9,10485
COc1ccc(NC(=O)CN2C(=O)NC3(CCCC3)C2=O)cc1OC,-14,-7,8,0.6,1,-1,3656
COc1cccc(C2(O)C(=O)Nc3ccccc32)c1 (stereo unspecified),7,10,8,0.0,-4,4,3707
S=c1[nH]nc(C2CCCCC2)n1N=Cc1cccc(Cl)c1Cl,/,/,-13,1.9,2,-13,/
CC(C)c1c(C(=O)N/N=C/c2ccncc2)nnn1-c1nonc1N,-22,-2,/,/,/,/,3652
NC(=O)c1ccc(=O)n(Cc2ccc(Cl)cc2Cl)c1,-8,1,2,1.3,10,10,3717
Cc1ccc(NC(=O)c2cc(NC(=O)c3ccco3)ccc2N2CCOCC2)cc1Cl,-11,5,-5,5.5,/,/,4519
C/C=C/C(=O)Nc1cccc(C2=NOC3(C2)C[C@@H](C(N)=O)N(C(=O)c2cc([N+](=O)[O-])cc([N+](=O)[O-])c2C)C3)c1 (stereo partly specified),-23,-11,/,/,/,/,4426
O=S(=O)(c1cccc(COc2c(Cl)cccc2Cl)c1)N1CCOCC1,0,-1,-6,3.3,4,0,/
Nc1nc(SCc2ccc(Cl)cc2Cl)n[nH]1,-17,-15,0,-0.9,/,/,2459
Cc1c(CCC(=O)NCCCCCC(=O)O)c(=O)oc2cc3occ(-c4ccccc4)c3cc12,-1,-2,-26,12,3,5,3654
CCOc1ncccc1C(=O)OCC(=O)c1ccccc1,-8,8,3,3.3,3,-10,4250
O=C1C(=O)c2ccccc2C(O)=C1c1cccc([N+](=O)[O-])c1,-67,8,1,13,12,12,5471
CC(C)[C@H](NC(=O)c1ccccc1Cl)C(=O)OCC(=O)NC(=O)NCc1ccco1,-10,/,1,4.8,4,-7,6554
O=C(Nc1ccc(Oc2ccc3c(c2)C(=O)N(c2ccc(O)cc2)C3=O)cc1)c1cccs1,-13,3,32,3.8,6,0,2084
CNCCOc1ccccc1C(C)(C)C,-20,-4,5,4.3,6,9,4144
O=C(NC1CCCCC1)c1ccc2c(c1)OCO2,-36,-4,-1,6.9,/,/,5160
CCN1C(=O)[C@H]2[C@@H](c3ccc(Cl)cc3)N3C(=O)CN(CC4CC4)C(=O)[C@@]3(C)[C@H]2C1=O,-30,2,-5,-14,3,13,3363
CCc1ccc(NC(=O)CSCc2ccc(C(=O)O)cc2)cc1,-32,-13,9,4.0,2,-1,3401
CN(CCc1ccccn1)C(=O)CCC1CCCN(Cc2ccccc2OC(F)F)C1 (stereo unspecified),-19,17,5,6.6,13,7,3143
Cc1nonc1CN(C)C(=O)CC1C(=O)NCCN1Cc1ccccc1C(F)(F)F (stereo unspecified),-27,-10,0,3.8,6,6,4727
O=C(NCC1CCCO1)C1CC(=O)N(c2ccccc2)C1 (stereo unspecified),2,2,9,3.5,1,-3,3066
COc1ccc2c(c1)oc1c(SCc3nc4ccccc4[nH]3)nc(C)nc12,-27,/,9,1.0,2,18,3579
CCN1CCSc2ccc(C(=O)NCc3ccc(OC(C)C)cc3)cc21,-15,1,5,-14,-1,3,6592
Cc1ccc(OCC(=O)NNC(=O)[C@@H]2CCCC[C@@H]2C(=O)O)c(Br)c1,-29,/,2,1.9,-1,5,6697
Cc1ccc(S(=O)(=O)N2CCC(C(=O)Nc3cc(C(F)(F)F)ccc3N3CCOCC3)CC2)cc1C,-17,4,-8,0.7,10,12,6260
O=C1CCC([N+](=O)[O-])C(c2ccccc2C(F)(F)F)N1 (stereo unspecified),-3,3,8,5.4,2,3,3777
CCOc1ccc(C=NNC(=O)C2(O)c3ccccc3-c3ccccc32)cc1,/,/,14,5.3,5,3,/
O=C(OCCOc1ccccc1F)c1cccc(S(=O)(=O)N2CCOCC2)c1,-23,/,0,1.8,-4,-3,4024
CCCCOc1ccc(-c2csc(N)n2)cc1[N+](=O)[O-],-79,-3,8,8.5,5,0,2387

# Part of the list above in order of number of heavy atoms, smallest number first.
mol,PrP UTR inh,BJeLR viability,ugtP null kill,RN4220 kill,Mtb hypoxia inh,Mtb hypoxia inh growth,Bead autofluor
CNCCOc1ccccc1C(C)(C)C,-20,-4,5,4.3,6,9,4144
Nc1nc(SCc2ccc(Cl)cc2Cl)n[nH]1,-17,-15,0,-0.9,/,/,2459
O=C(NC1CCCCC1)c1ccc2c(c1)OCO2,-36,-4,-1,6.9,/,/,5160
COc1cccc(C2(O)C(=O)Nc3ccccc32)c1 (stereo unspecified),7,10,8,0.0,-4,4,3707
O=C1CCC([N+](=O)[O-])C(c2ccccc2C(F)(F)F)N1 (stereo unspecified),-3,3,8,5.4,2,3,3777
CCOc1ncccc1C(=O)OCC(=O)c1ccccc1,-8,8,3,3.3,3,-10,4250
O=C1C(=O)c2ccccc2C(O)=C1c1cccc([N+](=O)[O-])c1,-67,8,1,13,12,12,5471
CCc1ccc(NC(=O)CSCc2ccc(C(=O)O)cc2)cc1,-32,-13,9,4.0,2,-1,3401
O=S(=O)(c1cccc(COc2c(Cl)cccc2Cl)c1)N1CCOCC1,0,-1,-6,3.3,4,0,/
O=C(Nc1cccnc1Cl)c1ccc(S(=O)(=O)N2CCCCCC2)cc1,-25,-6,7,2.7,5,9,10485
COc1ccc2c(c1)oc1c(SCc3nc4ccccc4[nH]3)nc(C)nc12,-27,/,9,1.0,2,18,3579
O=C(OCCOc1ccccc1F)c1cccc(S(=O)(=O)N2CCOCC2)c1,-23,/,0,1.8,-4,-3,4024
CC(C)[C@H](NC(=O)c1ccccc1Cl)C(=O)OCC(=O)NC(=O)NCc1ccco1,-10,/,1,4.8,4,-7,6554
Cc1ccc(NC(=O)c2cc(NC(=O)c3ccco3)ccc2N2CCOCC2)cc1Cl,-11,5,-5,5.5,/,/,4519
O=C(Nc1ccc(Oc2ccc3c(c2)C(=O)N(c2ccc(O)cc2)C3=O)cc1)c1cccs1,-13,3,32,3.8,6,0,2084
Cc1c(CCC(=O)NCCCCCC(=O)O)c(=O)oc2cc3occ(-c4ccccc4)c3cc12,-1,-2,-26,12,3,5,3654
Cc1ccc(S(=O)(=O)N2CCC(C(=O)Nc3cc(C(F)(F)F)ccc3N3CCOCC3)CC2)cc1C,-17,4,-8,0.7,10,12,6260
C/C=C/C(=O)Nc1cccc(C2=NOC3(C2)C[C@@H](C(N)=O)N(C(=O)c2cc([N+](=O)[O-])cc([N+](=O)[O-])c2C)C3)c1 (stereo partly specified),-23,-11,/,/,/,/,4426

# Two of these compounds in a different format.
Cc1ccc(OCC(=O)NNC(=O)[C@@H]2CCCC[C@@H]2C(=O)O)c(Br)c1
  PrP UTR inh: -29
  BJeLR viability: /
  ugtP null kill: 2
  RN4220 kill: 1.9
  Mtb hypoxia inh: -1
  Mtb hypoxia inh growth: 5
  Bead autofluor: 6697

Cc1ccc(NC(=O)c2cc(NC(=O)c3ccco3)ccc2N2CCOCC2)cc1Cl
  PrP UTR inh: -11
  BJeLR viability: 5
  ugtP null kill: -5
  RN4220 kill: 5.5
  Mtb hypoxia inh: /
  Mtb hypoxia inh growth: /
  Bead autofluor: 4519

# Next results.
mol,PrP UTR inh,BJeLR viability,ugtP null kill,RN4220 kill,Mtb hypoxia inh,Mtb hypoxia inh growth,Bead autofluor
O=C(Nc1nc(-c2cccc(Br)c2)cs1)Oc1ccccc1,-27,3,4,2.9,8,2,6798
CC(=O)Nc1ccc(NC(=O)C(C)OC(=O)CCC(=O)c2ccc(F)cc2)cc1 (stereo unspecified),-24,-5,4,1.3,18,7,9517
CCCCn1c(N)c(N(CC)C(=O)c2ccc(C#N)cc2)c(=O)[nH]c1=O,2,-19,1,3.0,-10,12,3501
O=C(Cc1cccc(NC(=O)C2CCCN(C(=O)CCc3ccccc3)C2)c1)Nc1ccc(C(=O)N2CCCCC2)cc1 (stereo unspecified),24,/,0,2.6,-16,-6,3670
CC(=O)c1c(C)[nH]c(C(=O)Nc2cc(S(=O)(=O)N3CCCCC3)ccc2C)c1C,-3,/,-1,2.7,-3,5,3796
CCc1cccc(NC(=O)c2ccc(Br)o2)c1,-32,-4,4,4.7,/,/,4214
CCOC(=O)CN1C(=O)NC(c2cccc(F)c2)C(C(=O)OC)=C1C (stereo unspecified),/,/,-12,10,-5,10,/
COCCCN1C(=O)C(=O)/C(=C(/O)c2ccc3c(c2)CC(C)O3)C1c1cccnc1 (stereo unspecified),1&-14,2,7,2.9,-1,-4,2440
O=C(NC(=S)Nc1ccccc1N1CCOCC1)c1ccc([N+](=O)[O-])cc1,-18,2,40,-0.3,1,7,2462
COCCNc1nc2c(c(=O)n(Cc3ccc(OC)cc3)c(=O)n2C)n1C,-9,2,1,2.6,-1,6,22936*
COc1ccccc1OCCNC(=O)c1ccccc1C,-48,-3,1,3.2,7,2,8033
O=C(CC1CCCC1)NCCS(=O)(=O)N1CCN(c2ccccc2F)CC1,-9,5,8,0.3,5,12,?
O=C(CCc1nc(-c2ccccc2Cl)no1)NC1CCCC1,-13,1,10,1.4,5,9,4306
COCCNCC#CCOc1ccc(OC)cc1,-9,8,2,1.6,2,6,11175
COc1ccc(CC(=O)Nc2ccc(-c3noc(COc4ccccc4C)n3)cc2)cc1,-14,5,2,-1.8,/,/,2229
CC(C)C(C)(C#N)NC(=O)CSc1nnc(-c2ccncc2)n1Cc1ccccc1 (stereo unspecified),-10,-23,-1,-3.8,-12,-2,3564
Cc1ccccc1NC(=S)C1=C(O)c2sccc2N(C)S1(=O)=O,5,1,-6,13,/,/,2752
CC(=O)N1CCc2cc(Br)cc(S(=O)(=O)N3CCC(C(=O)O)CC3)c21,-7,-11,2,-0.5,-10,-3,6042
CC1CCCCN1C(=S)NCCc1ccccc1 (stereo unspecified),-22,-3,1,-0.7,/,/,5015
C/C(=N/NC(=O)CCc1ccccc1)c1ccco1,-7,-1,/,/,/,/,2008
CCCN(CCC)Cc1c(C(=O)N/N=C/c2ccco2)nnn1-c1nonc1N,-20,-1,/,/,/,/,5657
CC(=O)N(C)c1ccc(N2CCOCC2)c2c1C(=O)c1ccccc1C2=O,-7,-1,6,5.3,-3,-5,3285
O=C(c1ccccc1)N1CCN(Cc2ccccc2C(F)(F)F)CC1,-25,6,-7,5.6,-5,1,4178
COc1ccc(OC)c(NC(=O)CCCN2C(=O)C3C4C=CC(C4)C3C2=O)c1 (stereo unspecified),-2,16,0,7.7,/,/,3628
CS(=O)(=O)Nc1cccc(C2=NN(C(=O)CCC(=O)O)C(c3cccs3)C2)c1 (stereo unspecified),-9,1,3,4.7,-12,-5,2951
O=C(O)CC12CC3CC(C1)CC(n1ncc(NCC4CCCO4)c(Cl)c1=O)(C3)C2 (stereo unspecified),-13,5,3,1.4,7,3,3910
CC(C)[C@H](NC(=O)Nc1ccc(Oc2ccccc2)cc1)C(=O)O,-19,2,/,/,/,/,2416
O=C(CN1CCN(c2ccccc2)CC1)Nc1ccc(OCc2ccccc2)cc1,-20,-11,4,-2.1,-7,10,4625
O=C(Nc1nnc(CCc2ccccc2)s1)c1ccccc1F,-43,-2,14,3.2,11,10,3288
COCc1cc(=O)n2[nH]cc(-c3ccccc3)c2n1,-18,12,2,5.6,6,17,/

# Rows are unselected, and some 4% of all compounds hit somewhere here.
